Screens as filed in PubChem BioAssay.
Cruzain inh noDet: qHTS Assay for Promiscuous and Specific Inhibitors of Cruzain (without detergent) | Cruzipain (Trypanosoma cruzi), P25779 | purified cruzain, Z-FR-AMC fluorescence, no detergent | Potency, µM, without a hit: max response, negative = inhibition, actives largely listed as inhibitors | 200,000 compounds, 2.3% hits | AID 1476, 2009;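 also: plate controls were enzyme without inhibitor for no effect and buffer without enzyme for full effect; nearly all actives have a fitted effect of over 40% in size; top concentration of the series not given in the record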
Target sequence (P25779 123-467 limits assumed): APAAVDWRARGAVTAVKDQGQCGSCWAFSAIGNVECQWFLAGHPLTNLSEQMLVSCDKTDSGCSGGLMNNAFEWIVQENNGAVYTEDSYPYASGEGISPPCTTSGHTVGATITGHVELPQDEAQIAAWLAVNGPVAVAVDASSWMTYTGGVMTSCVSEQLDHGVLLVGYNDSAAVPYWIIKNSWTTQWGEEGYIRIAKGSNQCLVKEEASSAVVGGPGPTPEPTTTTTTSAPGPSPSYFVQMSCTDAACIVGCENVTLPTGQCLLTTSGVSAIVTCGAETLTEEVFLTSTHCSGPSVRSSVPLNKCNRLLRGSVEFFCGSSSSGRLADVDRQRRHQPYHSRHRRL
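Detergent-free condition (0.00005% Triton X-100) in acetate buffer pH 5.5 with DTT. 1.5 nM enzyme and compound were pre-mixed 15 min, then 2 uM Z-FR-AMC substrate added; reaction progress from fluorescence change between first and third reads (60 s).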
2A StopGo: High Throughput Screening for Foot and Mouth Disease Virus Antivirals; human cells with a luciferase reporter of 2A StopGo recoding; control for the full effect not named in the record; Potency, µM (titrated, usually from 57.9 µM), for the others: top-dose signal change, negative = less light; 410,000 compounds, 1.2% hits; AID 1159524, 2015; active = well fitted falling curve with a large enough effect; inconclusive = small, poorly fitted or top-dose-only effect; inactive = no such curve, though single readings can be large or run the other way; tested in HEK293T cells; also: % is scaled to controls: 0 for no effect and ±100 for the full control effect; nearly all actives have a fitted effect of over 45% in size; luciferase light after 4 h
Cruzain inh Det: qHTS Assay for Promiscuous and Specific Inhibitors of Cruzain (with detergent) | AID 1478, 2009 | Potency, µM, for inactives: max response, negative = inhibition, hits mostly inhibitors | purified cruzain, Z-FR-AMC fluorescence, 0.01% Triton | 200,000 compounds, 0.43% hits;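 also: plate controls were neutral wells for no effect and buffer without enzyme for full effect; nearly all actives have a fitted effect of over 40% in size; top concentration of the series not given in the record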
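Sodium acetate buffer (100 mM, pH 5.5) containing 5 mM DTT and 0.01% Triton X-100 hosted 1.5 nM cruzain and test compound for 15 min at room temperature. Cleavage of 2 uM Z-FR-AMC was then tracked by fluorescence.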
SARS PLpro yeast: qHTS of Yeast-based Assay for SARS-CoV PLP; S. cerevisiae expressing SARS-CoV PLpro, growth rescue; control for the full effect not named in the record; Potency, µM (titrated, usually from 32.9 µM), without a hit: at the highest dose activity, positive = growth rescue; 330,000 compounds, 0.19% hits; AID 485353, 2010; active means well fitted rising curve with a large enough effect; inconclusive means small, poorly fitted or top-dose-only effect; inactive means no such curve, though single readings can be large or run the other way; also: 0% is about no effect; nearly all actives have a fitted effect of over 55% in size; growth read by luminescence after 48 h
Marburg entry inh: qHTS for inhibitors of binding or entry into cells for Marburg Virus. 300,000 compounds, 1.8% hits. Marburg virus pseudotyped entry inhibition, cell reporter; control for the full effect not named in the record; about a third of the inactives were read at about 46 µM. Potency, µM (series often up to 37.8 µM), for inactives: top-dose activity change, negative = inhibition, actives largely listed as inhibitors; active = well fitted inhibition curve with a large enough effect; inconclusive = small, poorly fitted or top-dose-only effect, or effect the other way; inactive = flat fitted curve, though single readings scatter; tested in HEK293 cells; about a fifth of its hits are not listed in these tables; also: % is scaled to controls: 0 for no effect and ±100 for the full control effect; luciferase read-out
RE007 growth inh: qHTS Assay for Inhibitors of the HIV-1 protein Vpr; AID 651644, 2012; Potency, µM (series often up to 92.2 µM), for inactives: top-dose activity change, negative = less growth; 360,000 compounds, 0.21% hits; S. pombe RE007 Vpr strain, BacTiter-Glo ATP luminescence, 24 h; control for the full effect not named in the record; active = well fitted falling curve with a large enough effect; inconclusive = small, poorly fitted or top-dose-only effect; inactive = no such curve, though single readings can be large or run the other way;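 also: % is scaled to controls: 0 for no effect and ±100 for the full control effect; nearly all actives have a fitted effect of over 50% in size; the assay follows cell death caused by Vpr and the record does not say whether a fall means rescue or toxicity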
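Fission yeast RE007 carrying one integrated HIV-1 vpr copy, seeded at OD 0.01 in PMG+AL medium with 23 nL pinned compound. Grown 24 h at 30 degrees; viability read by BacTiter-Glo luminescence after 5 min.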
NS1 function inh: qHTS Assay for Inhibitors of Influenza NS1 Protein Function. S. cerevisiae slowed by influenza A NS1, growth recovery by OD600. Potency, µM (top dose mostly 46.1 µM), for inactives: at the top dose activity, positive = more growth. 270,000 compounds, 0.4% hits. AID 2326, 2010; active means well fitted rising curve with a large enough effect; inconclusive means small, poorly fitted or top-dose-only effect; inactive means no such curve, though single readings can be large or run the other way; also: nearly all actives have a fitted effect of over 50% in size
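A cell-based growth assay was used: compounds that relieve NS1-induced slow growth of budding yeast raise OD600. Assay medium was yeast nitrogen base with ammonium sulphate and -URA supplement, pH 6.0, with 2% galactose.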
Lassa entry inh: qHTS for Inhibitors of binding or entry into cells for Lassa Virus. Lassa virus pseudotype entry inhibition, cell reporter; control for the full effect not named in the record. 300,000 compounds, 1.2% hits. AID 540256, 2011. Potency, µM (doses to about 37.9 µM), for inactives: top-dose activity change, negative = inhibition, most hits filed as inhibitors; active means well fitted inhibition curve with a large enough effect; inconclusive means small, poorly fitted or top-dose-only effect, or effect the other way; inactive means flat fitted curve, though single readings scatter; tested in HEK293 cells; also: % is scaled to controls: 0 for no effect and ±100 for the full control effect; nearly all actives have a fitted effect of over 50% in size; luciferase read-out
An asterisk follows results filed as active; ? = inconclusive; nt = not tested or not shown; & = joins results of further samples; [ ] = dose if it differs, or a comment. Unless noted, calls follow the shape of the dose curve; as a rule, active = well fitted curve in the direction sought with a large enough effect; inconclusive = small, poorly fitted or top-dose-only effect, or another doubt; inactive = no such curve, though single readings can be large; an effect the other way counts as inactive or inconclusive. Potency is read from the fitted curve at half-maximal effect.

SMILES | Cruzain inh noDet | 2A StopGo | Cruzain inh Det | SARS PLpro yeast | Marburg entry inh | RE007 growth inh | NS1 function inh | Lassa entry inh
CC(=O)N1CCCc2cc(S(=O)(=O)N3CCC(C(=O)Nc4cccc(Cl)c4C)CC3)ccc21 | ? | 0% | -2.1% | nt | nt | nt | nt | 3%[46.1 µM]
O=C(NCc1ccccn1)C(=O)NN=C1CCCCCCCCCCC1 | nt | -7% | nt | 0% | 0% | 18% | 1% | 3%
CCOC(=O)[C@H](CCc1ccccc1)N[C@@H](C)C(=O)N1[C@H](C(=O)O)C[C@H]2CCCC[C@@H]21 | ? | -7% | 1.9% | nt | 12% | nt | nt | -19%
CCOC(=O)Cc1csc(NC(=O)CS(=O)(=O)Cc2ccccc2)n1 | -1% | -21% | -1.1% | -6% | -22% | 0% | 1% | 4%
Cc1ccc(C2=NS(=O)(=O)N(C)C(C(=O)Nc3cc(C)n(CC(=O)N4CCC(C)CC4)n3)=C2)cc1 | nt | -7% | nt | 5% | nt | -5% | 15% | nt
COc1ccc(C(=O)/C=C/c2ccc(N3CCCCC3)c([N+](=O)[O-])c2)cc1 | -17% | -21% | -5.3% | 6% | -19% | 17% | 27% | 10%
N#Cc1c(-c2ccco2)nc(SCC(=O)Nc2ccc(S(N)(=O)=O)cc2)[nH]c1=O | -4% | nt | 1.0% | 1% | -9% | nt | 3% | nt
CCSc1nnc(NC(=O)C2CC2c2ccccc2)s1 (centres undefined) | ? | 5% | -1.5% | -4% | ? | 21% | 18% | -3%
C=CCOC(=O)C(C#N)c1nc2ccccc2nc1N1CCCC1 (centres undefined) | -11% | -15% | -3.0% | -3% | -1% | -14% | -47% | 5%
FCCN(CCF)c1cccc(Cl)c1 | nt | -2% | nt | -4% | 3%[46.1 µM] | 5% | 5% | -2%[46.1 µM]
COc1cccc(NC(=O)CCCn2c(=O)c3cccn3c3cccnc32)c1 | -5% | -4% | -4.5% | nt | nt | nt | nt | 6%[46.1 µM]
Cc1cc(SCC(=O)Nc2ccc3[nH]c(=O)[nH]c3c2)nc2ccccc12 | nt | -3% | nt | -1% | -14% | 18% | nt | 28%
COCCN=C1Sc2nc3cc4c(cc3cc2CN1CC1CCCO1)OCO4 (centres undefined) | nt | 28% | nt | 2% | nt | 6% | 2% | nt
COC(=O)c1ccc(NC(=O)C23CC4CC(C2)CC(n2cnc(Cl)n2)(C4)C3)cc1 | 13% | -17% | -1.1% | 1% | -4% | 16% | -3% | -2%
Cc1ccc(S(=O)(=O)Nc2cc(C(=O)NCCN(C)C)ccc2N2CCCC2)cc1 | nt | 23% | nt | 2% | nt | -3% | 0% | nt
O=C(COC(=O)c1ccc[nH]c1=O)NC1CCCCCC1 | nt | 0% | nt | -4% | ? | 5% | nt | -3%
CCc1ccc(N2CC(C(=O)OCC(=O)Nc3ccc([N+](=O)[O-])cc3)CC2=O)cc1 (centres undefined) | nt | -20% | nt | -5% | -27% | 2% | nt | -1%
O=C1CN(C(=O)COc2ccccc2)C(c2ccc(F)cc2)c2cc(Br)ccc2N1 (centres undefined) | -15% | -19% | -5.0% | nt | ? | nt | nt | -20%[46.1 µM]
Fc1ccc([C@@H]2Nc3ccccc3[C@@H]3C=CC[C@@H]32)cc1 | -20% | -2% | -3.1% | nt | ? | nt | nt | -2%[46.1 µM]
O=C(O)COc1ccc(S(=O)(=O)c2ccc(OCC(=O)O)cc2)cc1 | -8% | -18% | 7.8% | 2% | -2% | -10%[3.69 µM] | -1% | 0%
CCCCN(C(=O)C1CCCC1)c1c(N)n(Cc2ccccc2)c(=O)[nH]c1=O | nt | -1% | nt | 11% | 0%[46.1 µM] | -16% | nt | 3%[46.1 µM]
Cc1nn(C)c(C(=O)NNC(=S)NC2CCCCC2)c1Cl | 14% | -30% | 9.1% | -1% | -18% | 5% | -18% | 4%
CS(=O)(=O)c1cccc(-c2nnc(NC(=O)c3ccc4c(c3)OCCO4)o2)c1 | 8% | -4% | 6.7% | nt | nt | nt | nt | 7%[46.1 µM]
Cn1c(SCC(=O)N2CCOCC2)ncc(C(=O)Nc2ccccc2)c1=O | 13% | 12% | -1.3% | nt | nt | nt | nt | ?
CCc1cc2c(=O)c(-c3ccc4c(c3)OCO4)coc2c(CN(C)C)c1O | nt | -5% | nt | 2% | nt | 1% | -1% | nt
CCNc1nc(NCC)n2c(SCC(=O)Nc3cc(Cl)ccc3OC)nnc2n1 | nt | -16% | nt | nt | -6% | 13% | nt | 14%
Cc1ccc(C)c(Nc2nn3c(=O)c4cc5c(cc4nc3s2)OCO5)c1 | ? | -10% | -5.6% | nt | ? | nt | nt | -6%[46.1 µM]
C=CCN1CCN(c2ccncc2S(=O)(=O)N2CCCCC2)CC1 | nt | -14% | nt | ? | 3% | -1% | ? | 6%
Cc1oc2cc(O)cc(C)c2c(=O)c1-c1cnn(-c2ccccc2)c1 | 22% | 0% | -4.7% | -25% | ? | -5% | -8% | ?
Cc1cccc(NC(=O)c2c(O)c3cccc4c3n(c2=O)CCC4)n1 | -20% | nt | 3.9% | ? | nt | nt | -53% | nt
S=C1Cc2ccccc2N1 | nt | 32µM* | nt | -20% | nt | 5% | -73% | nt
Clc1ccc(C2CC(c3cccs3)n3ncnc3N2)c(Cl)c1 (centres undefined) | nt | -25% | nt | 0% | nt | -7% | -86% | nt
COC(=O)CN1C(CN2CCOCC2)=Nc2ccc(Br)cc2C1c1ccccc1 (centres undefined) | nt | -17% | nt | 1% | -28%[46.1 µM] | -19% | -2% | -16%
COc1ccc(-n2c(SCC(=O)N3CCCCC3C)nnc2-c2cccnc2)cc1 (centres undefined) | 0% | -1% | 1.0% | 4% | 1%&-24% | 5% | -3% | 19%
Cn1c(Cn2c(=O)sc3ccccc32)nnc1SCC(=O)Nc1ccc(Cl)cc1 | 5% | -19% | -3.9% | ? | nt | -6% | ? | nt
CCOC(=O)c1c(C)c(-c2ccccc2)n(CC(=O)NC2CCCCCC2)c1C | 15% | -15% | -0.7% | nt | ? | nt | nt | nt
Cc1ccc(NC(=O)COC(=O)c2cc(Cl)ccc2Cl)c(Br)c1 | 7% | -2% | -1.0% | -5% | 5% | -16% | -5% | 2%
COc1ccc(Nc2nc(C)nc3c2oc2ccccc23)c(OC)c1 | nt | ? | nt | -2% | ? | -17% | 2% | ?
O=C(OCC(=O)N1CCOCC1)c1ccc(Cl)c(S(=O)(=O)N2CCc3ccccc32)c1 | nt | -18% | nt | -8% | ? | 10% | nt | -28%[46.1 µM]
CCc1sc(C(C2C(=O)CC(C)(C)CC2=O)C2C(=O)CC(C)(C)CC2=O)cc1[N+](=O)[O-] | nt | 7.9µM* | nt | 0% | ? | 0% | -2% | 1%
CCC(=O)NC(c1ccc(Cl)cc1Cl)c1ccc2cccnc2c1O (centres undefined) | nt | -6% | nt | 1% | 11µM* | -9% | -115% | ?
C=CCNC(=O)c1onc(CSc2ccccn2)c1C(=O)NCC=C | nt | -12% | nt | -3% | nt | -8% | -4% | nt
Cc1cc2c(cc1NS(=O)(=O)c1ccc(Br)cc1)n(C)c(=O)c(=O)n2C | -3% | 7% | 5.3% | nt | nt | nt | nt | 4%[46.1 µM]
COc1ccc(-c2c3c(=O)n(C)c(=O)n(C)c3c3n2-c2ccccc2NC3c2ccc(O)cc2O)cc1 (centres undefined) | -6% | ? | -5.1% | nt | 9%[46.1 µM] | nt | nt | 1%[46.1 µM]
COc1c(F)c(F)c(C(=O)O)c(Nc2cccc(C)c2)c1F | nt | -11% | nt | 1% | -2%[46.1 µM] | 30% | nt | 18%[46.1 µM]
COc1ccc(CCN2C(=O)CC(N3CCN(C/C=C/c4ccccc4)CC3)C2=O)cc1OC (centres undefined) | nt | ? | nt | 0% | -34%[46.1 µM] | -7% | -3% | ?
CC1CCC(NC(=O)CCNC(=O)c2ccc(Br)cc2)CC1 (centres undefined) | nt | 35%[activator] | nt | 2% | ? | 6% | nt | ?
CC1(C)CC(=O)c2cnc3c(C#N)cnn3c2C1 | nt | -3% | nt | -2% | -19%[46.1 µM] | 0% | 1% | 26%[46.1 µM]
CCOc1ccc(S(=O)(=O)NCc2ccc(C)cc2)c2cccnc12 | 6% | 11% | 5.4% | 14% | ? | 12% | -13% | -3%
Cc1cc(NC(=O)CSc2nnc(CNC(=O)c3ccc(F)cc3)o2)no1 | nt | 10% | nt | -7% | 22% | 4% | 13% | -16%
CC(=O)NC1C(Oc2ccc(C)cc2)OC2COC(c3ccco3)OC2C1O (centres undefined) | 12% | 0% | 3.5% | 3% | 3% | ? | -14% | 5%

A draw from above in order of length of the SMILES, low to high:
SMILES | Cruzain inh noDet | 2A StopGo | Cruzain inh Det | SARS PLpro yeast | Marburg entry inh | RE007 growth inh | NS1 function inh | Lassa entry inh
CC1(C)CC(=O)c2cnc3c(C#N)cnn3c2C1 | nt | -3% | nt | -2% | -19%[46.1 µM] | 0% | 1% | 26%[46.1 µM]
COc1ccc(Nc2nc(C)nc3c2oc2ccccc23)c(OC)c1 | nt | ? | nt | -2% | ? | -17% | 2% | ?
COc1ccc(CCN2C(=O)CC(N3CCN(C/C=C/c4ccccc4)CC3)C2=O)cc1OC (centres undefined) | nt | ? | nt | 0% | -34%[46.1 µM] | -7% | -3% | ?
COc1ccc(-c2c3c(=O)n(C)c(=O)n(C)c3c3n2-c2ccccc2NC3c2ccc(O)cc2O)cc1 (centres undefined) | -6% | ? | -5.1% | nt | 9%[46.1 µM] | nt | nt | 1%[46.1 µM]
